# Screening results as filed in PubChem BioAssay.
# Polio RdRp inh = inhibitors of poliovirus RNA polymerase binding and polymerization; P03300; poliovirus polymerase elongation, fluorescence polarization; hits give low values; % elongation, % (compound at 16.7 µg/mL); 150,000 tested, 0.66% active; AID 588519; in the data active = % elongation below about 90%; also: some results filed as inactive read as strong as hits
# Target sequence (P03300 1749-2209 limits assumed): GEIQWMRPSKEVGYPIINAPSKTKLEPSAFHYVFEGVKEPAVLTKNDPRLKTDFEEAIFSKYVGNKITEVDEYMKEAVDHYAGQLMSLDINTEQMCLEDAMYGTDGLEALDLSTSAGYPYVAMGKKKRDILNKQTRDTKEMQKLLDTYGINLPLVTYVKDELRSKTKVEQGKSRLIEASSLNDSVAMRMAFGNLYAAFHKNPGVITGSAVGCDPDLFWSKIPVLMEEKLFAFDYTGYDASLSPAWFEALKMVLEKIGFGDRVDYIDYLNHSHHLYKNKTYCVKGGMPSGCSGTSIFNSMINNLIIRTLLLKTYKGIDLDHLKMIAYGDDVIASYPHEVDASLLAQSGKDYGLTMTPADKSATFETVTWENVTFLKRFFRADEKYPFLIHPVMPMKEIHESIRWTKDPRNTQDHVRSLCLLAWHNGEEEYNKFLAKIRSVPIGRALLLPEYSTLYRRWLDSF
# Polio RdRp inh intensity = also measured in Polio RdRp inh; calls as there; % elongation; measured here: total intensity read-out; formula for this scale not given here;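 total fluorescence in place of polarization; lower means less elongation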
# * = called active by the depositor. A portion of the library, so the mix of outcomes need not match the whole.
SMILES,Polio RdRp inh,Polio RdRp inh intensity
Cc1ccccc1C(=O)Nc1nnc(S(=O)(=O)N2c3ccccc3CC2C)s1 (centres undefined),103,106
CCOC(=O)c1cnc2nc(NCc3ccc(OCC)cc3)[nH]n2c1=O,122,120
CCOC(=O)Cn1c(=O)n(C2CCCCC2)c2nc(-c3cccc(C)c3)nc(C(N)=O)c21,107,109
CCn1cc(C(=O)NCc2ccccc2)c(=O)c2cc(S(=O)(=O)N3CCc4ccccc4C3)ccc21,106,110
CCCOc1ccc(CNC(=O)Cn2cc3c(n2)-c2c(oc(C(=O)N4CCOCC4)c2C)CC3)cc1,113,109
O=C(Cc1ccc(-c2ccccc2)cc1)NCCS(=O)(=O)N1CCN(c2cccc(Cl)c2)CC1,106,104
Cc1ccc(C)c(NC(=O)c2cc(S(=O)(=O)NCCC3=CCCCC3)ccc2F)c1,104,109
CCOc1ccc(CNC(=O)c2ccc3nc(CC)c(CC)nc3c2)cc1,118,111
COc1cc(Cl)c(C)cc1NC(=O)c1cn(C2CCCC2)c(=O)c2c1c1ccccc1n2C,111,110
COc1cc(CN(C(=O)c2cccc(Cl)c2)c2ccccn2)cc(OC)c1OC,103,112
CCOC(=O)c1c(S(=O)(=O)N2CCCC(C(=O)NCc3cccc(OC)c3)C2)c(C)n(C)c1C (centres undefined),99,97
O=C(CCn1ccc2cc(S(=O)(=O)N3CCCC3)ccc21)NCc1ccccc1Br,110,112

# Grouped by structure: the compounds so far with a Cl atom (three)
SMILES,Polio RdRp inh,Polio RdRp inh intensity
O=C(Cc1ccc(-c2ccccc2)cc1)NCCS(=O)(=O)N1CCN(c2cccc(Cl)c2)CC1,106,104
COc1cc(Cl)c(C)cc1NC(=O)c1cn(C2CCCC2)c(=O)c2c1c1ccccc1n2C,111,110
COc1cc(CN(C(=O)c2cccc(Cl)c2)c2ccccn2)cc(OC)c1OC,103,112

# Next structures
SMILES,Polio RdRp inh,Polio RdRp inh intensity
Fc1ccc(NCc2cccn2-c2nnc(N3CCOCC3)s2)cc1,109,111
CCc1ccc2nc(N(Cc3cccnc3)C(=O)Cc3ccccc3)sc2c1,105,110
CN(C(=O)CSc1nnc(-c2ccc([N+](=O)[O-])cc2)o1)C1CCCCC1,104,108
COc1ccc(Cn2c(=O)c3oc4ccccc4c3n(Cc3ccc(Cl)cc3)c2=O)cc1,117,106
CCOCCc1nnc(NC(=O)C(=O)c2cc(C)n(-c3ccc(C)c(C)c3)c2C)s1,112,108
CCOc1ccc(CCNC(=O)c2nnc(Cc3ccc(Cl)cc3Cl)o2)cc1OCC,108,111
CCOc1ccc(C(=O)Nc2ccc3nc(SCC(=O)N(C)c4ccccc4)sc3c2)cc1,108,112
Cc1ccc(NC(=O)Cn2c(=O)n(-c3ccccc3)c(=O)c3ccc(C(=O)NCc4ccc5c(c4)OCO5)cc32)c(C)c1,103,100
Cc1c(C2=CCN(S(=O)(=O)c3ccc(Cl)cc3)CC2)c2ccccc2n1CC(=O)N1CCCC1,101,102
COc1ccccc1CNC(=O)CN(C)c1nn2c(=O)cc(C)nc2s1,107,108
Cc1ccc(N2CC(NC(=O)c3ccc(S(=O)(=O)N4CCCC4)cc3)CC2=O)cc1C (centres undefined),113,116
Cc1ccc(NC(=O)C(C)n2nnc3sc4c(c3c2=O)CCCC4)cc1Cl (centres undefined),108,104
CCOC(=O)c1cccc(NC(=O)CCSCCc2ccccn2)c1,109,113
COc1ccc(OC(=O)c2nc(SCc3ccccc3C)ncc2Cl)cc1,109,110
CCCN(C(=O)c1cn(CC(C)C)c(=O)c2cc(OC)c(OC)cc12)c1cccc(C)c1,98,97
O=C(Cn1c(=O)n(Cc2ccc3c(c2)OCO3)c(=O)c2oc3ccccc3c21)Nc1ccc(F)cc1,112,105
CCOC(=O)CSc1nc2sc3c(c2c(=O)n1CC)CCCC3,101,103
COc1cccc(C(=O)Nc2ccccc2OCc2cc(=O)n3ccccc3n2)c1,114,110
COc1ccc(CCNC(=O)Cn2c(=O)nc(-c3ccccc3)c3ccccc32)cc1OC,102,97
CNC(=O)c1ccc2nc(CCc3ccccc3)oc2c1,111,100
Cc1ccc(CCNC(=O)c2ccc3c(c2)N(Cc2cccc(Cl)c2)C(=O)c2ccccc2S3(=O)=O)cc1,105,116
COc1ccc(-n2nc(C(=O)Nc3cccc(C)n3)c3c4ccccc4n(C)c3c2=O)cc1,106,104
Clc1cccc(CNc2cc(-c3ccccc3)nc3nncn23)c1,114,110
COc1ccc(OC)c(CNC(=O)C2CCN(S(=O)(=O)c3ccc4[nH]c(=O)oc4c3)CC2)c1,105,111
CCN(CC)c1ccc(NC(=O)CN2C(=O)c3cccnc3Oc3ccc(Cl)cc32)c(C)c1,113,108
CN(C)CCNC(=O)CN1C(=O)COc2ccc(S(=O)(=O)N3CCCC3)cc21,105,104
Cc1cc(C)c(NC(=O)C(=O)NCCc2csc(-c3ccc(F)cc3)n2)c(C)c1,99,108
CCn1nc(C)c2c(-c3ccccc3)cc(=O)n(C(C)C(=O)Nc3cccc(F)c3)c21 (centres undefined),112,111
Cc1cc(C)cc(NC(=O)C2CCN(C(=O)c3cnn(-c4ccccc4)c3-n3cccc3)CC2)c1,109,107
Cc1ccc(C)c(NC(=O)CSc2c(C)cnc3c2c(=O)n(C)c(=O)n3C)c1,108,113
CC1CCCN(CCCNC(=O)c2ccc3c(c2)N(Cc2ccc(Cl)cc2)C(=O)c2ccccc2S3(=O)=O)C1 (centres undefined),108,105
COc1ccc(CNC(=O)CN2C(=O)CSc3ccc(S(=O)(=O)N4CCOCC4)cc32)c(OC)c1,111,108
CC1=C(C(=O)Nc2ccc(Cl)cc2)C(c2ccccc2C)n2ncc(C(=O)Nc3ccc(C)cc3)c2N1 (centres undefined),102,105
COC(=O)c1ccc(Cl)cc1NC(=O)N(Cc1ccc(C)o1)C1CCN(C(C)=O)CC1,112,112
Cc1ccccc1OCC(=O)Nc1ccc2nc(SCc3ccccc3)sc2c1,112,106
CCN(CC)CCCNc1sc(S(=O)(=O)c2ccccc2)nc1S(=O)(=O)c1ccc(Cl)cc1,109,102
O=C(Nc1ccc2oc(-c3cccnc3)nc2c1)c1ccc(-c2cccc(Cl)c2)o1,103,103
COc1ccc(Br)cc1CNC(=O)CN1C(=O)CCCc2ccccc21,100,106
CCC(CC)c1nn2c(=O)cc(COc3ccc(NC(=O)c4ccccc4C)cc3)nc2s1,103,123
Cc1ccc(C)c(CN2C(=O)c3ccccc3S(=O)(=O)c3ccc(C(=O)Nc4cc(F)ccc4F)cc32)c1,102,104
COc1ccc(C2CC(=O)c3cnc4c(-c5ccc(F)cc5)c(C)nn4c3C2)cc1OC (centres undefined),111,113
Cc1cccc(N2CCN(C3=C(c4ccccc4)C(=O)c4ccccc43)CC2)c1C,105,107
CC(=O)N1CCCc2ccc(NS(=O)(=O)c3ccc(C)c(C)c3)cc21,105,105
CCOC(=O)c1ccc(NC(=O)c2nc(SCc3ccccc3F)ncc2Cl)cc1,100,104
Cc1cc(C)cc(NC(=O)CSc2nnc(CNC(=O)c3c(F)cccc3Cl)o2)c1,115,113
CCCCn1cc(S(=O)(=O)c2ccc(C)c(C)c2)c(=O)c2cc(F)c(N3CCN(C)CC3)cc21,109,114
O=C(COc1ccc(Cl)cc1)NCCc1csc(-c2ccc(F)cc2)n1,107,110
CCOC(=O)c1sc2ccccc2c1S(=O)(=O)Nc1ccc(CC)cc1,104,91
O=C(NCCc1ccccc1)c1ccc2c(c1)N(Cc1ccccc1F)C(=O)c1ccccc1S2=O (centres undefined),103,106
COc1ccccc1CNC(=O)c1nn(-c2ccc(C)cc2)c(=O)c2c1c1ccccc1n2C,113,109
COc1cccc(CNC(=O)c2c(C)nn(-c3cccc(C)c3)c2-n2cccc2)c1,110,115
O=C(NC1CC(=O)N(c2ccccc2)C1)c1ccc(S(=O)(=O)N2CCOCC2)cc1 (centres undefined),105,106
Cc1ccc(NC(=O)CCCn2c(=O)c3cccn3c3ccccc32)c(Cl)c1,110,118
COc1cccc(NC(=O)C2CCN(S(=O)(=O)c3c(C)noc3C)CC2)c1,116,117
Cc1cccc(Cc2c(C)nc3nc(SCC(=O)NC4CCCCC4)nn3c2C)c1,103,106
O=C(NCCCc1nc2ccccc2n1Cc1ccc(Cl)cc1)c1ccco1,105,96
O=C(Nc1nnc(S(=O)(=O)N2CCCc3ccccc32)s1)c1cccc(Cl)c1,114,110
Cc1ccc2c(Sc3ccc(Cl)cc3)c(C(=O)N3CCC(C)CC3)[nH]c2c1,114,115
COc1ccc(CNC(=O)C(=O)Nc2cc(Cl)ccc2OC)cc1,106,106
CCCOc1ccc(-c2nc(SCC(=O)c3ccc(Cl)cc3)n[nH]2)cc1,99,100

# An excerpt from above in order of count of non-hydrogen atoms, descending:
SMILES,Polio RdRp inh,Polio RdRp inh intensity
O=C(Cc1ccc(-c2ccccc2)cc1)NCCS(=O)(=O)N1CCN(c2cccc(Cl)c2)CC1,106,104
COc1cccc(C(=O)Nc2ccccc2OCc2cc(=O)n3ccccc3n2)c1,114,110
CCOC(=O)c1cccc(NC(=O)CCSCCc2ccccn2)c1,109,113

# The results go on.
SMILES,Polio RdRp inh,Polio RdRp inh intensity
COc1ccc(NC(=O)C(=O)NCC(c2ccc3c(c2)OCO3)N2CCN(C)CC2)cc1 (centres undefined),99,98
Cc1ccc(-n2nc(C)c3c(C(=O)NCCc4ccc(S(N)(=O)=O)cc4)cc(C)nc32)cc1,112,100
CCCn1c(SCc2nc(-c3ccc(OC)cc3OC)no2)nnc1-c1ccc(Cl)cc1,96,105
CCC1CCCCN1CC(=O)Nc1cc(C)c2c(=O)oc3ccccc3c2n1 (centres undefined),118,120
Cc1ccc(C(=O)N2CCN(c3cccc(Cl)c3)CC2)cc1-n1c(C)nc2cccnc21,111,109
Cc1ccc2c(c1)N(C(=O)CCC(=O)Nc1ccccc1Cl)CC(C)O2 (centres undefined),107,98
COCCNC(=O)C(=O)NCC(c1cccnc1)N1CCN(c2ccccc2OC)CC1 (centres undefined),111,110
COC(=O)c1c(C)oc2c1cc(NS(=O)(=O)c1c(C)cc(C)cc1C)c1ccccc12,105,105
CCOc1ccc(CCNC(=O)c2cc3sc(CC)cc3n2C)cc1OCC,104,108
CC(=O)c1ccc(NC(=O)CSC2=Nc3ccccc3N=C(c3ccc(F)cc3)C2)cc1,107,108
Cc1cccc(NC(=O)/C(C#N)=C/c2ccc(C)o2)c1,108,113
CC1CC(=O)N(CC(=O)Nc2ccc(F)cc2F)c2ccccc2S1 (centres undefined),104,109

# Taken from above.
# For Polio RdRp inh intensity, CCn1cc(C(=O)NCc2ccccc2)c(=O)c2cc(S(=O)(=O)N3CCc4ccccc4C3)ccc21 is entered as 110
# For Polio RdRp inh, CCOc1ccc(CNC(=O)c2ccc3nc(CC)c(CC)nc3c2)cc1 is entered as 118

# Next section:
SMILES,Polio RdRp inh,Polio RdRp inh intensity
CC(=O)c1ccc(N2CCN(C(=O)c3cc4cc5cc(C)ccc5nc4s3)CC2)cc1,103,108
CC1CN(C(=O)N2CCC(C(=O)NCCCc3ccccc3)CC2)c2cc(Cl)ccc2O1 (centres undefined),105,110
Cc1cn(C)c(CC(=O)N2CCN(c3ccccc3F)CC2)c1C(=O)O,103,104
COc1cc(NC(=O)C(CC(C)C)N2Cc3ccccc3C2=O)cc(OC)c1 (centres undefined),106,101
Cc1ccc(NC(=O)N2CCC(CN3CCCC3)CC2)c(C)c1,108,113
Cc1nc2ccn(Cc3cccnc3)c(=O)c2cc1C(=O)N1CCN(c2ccc(F)cc2)CC1,98,104
COc1ccc(NC(=O)Cn2nnc3sc4c(c3c2=O)CCC(C)C4)c(OC)c1 (centres undefined),106,109
Cc1c(Cl)cccc1-n1ncc(C(=O)Nc2ccc3c(c2)OCCO3)c1C1CCN(C(=O)OC(C)(C)C)CC1,101,105
Cc1cc(=O)n2nc(N3CCC(C(=O)Nc4ccc(C)c(Cl)c4)CC3)sc2n1,109,112
CCOC(=O)c1ccccc1NC(=O)CSc1ccc(-c2sc(C)nc2C)nn1,105,105
CCCCc1nn2c(=O)cc(COC(=O)c3cccc(NC(=O)COc4ccccc4)c3)nc2s1,106,111
COc1ccc(C2c3c(n(C)c4ccccc34)C(=O)N2CC(=O)Nc2ccccc2F)cc1 (centres undefined),108,111
CCc1cccc(CC)c1NC(=O)CCS(=O)(=O)c1ccc(Br)s1,102,107
CCOC(=O)C1CCN(C(=O)c2ccc3c(c2)sc2nc(-c4ccc(OCC)cc4)cn23)CC1,108,110
O=C(Nc1cccc(Cl)c1)c1ccc(F)c(S(=O)(=O)N2CCC3(CC2)OCCO3)c1,100,110
CCOc1ccc(OCC)c(NC(=O)C2CCN(c3nnc(-n4cccc4)s3)CC2)c1,111,112
CCOc1ccc(NC(=O)c2c(C)nn(-c3ccc(F)cc3)c2-n2cccc2)cc1,105,112
COc1ccc2c(c1)c1c(c(=O)n(-c3ccc(OC)c(OC)c3)c(=O)n1Cc1ccccc1F)n2C,112,108
COc1ccc(N2CC(NC(=O)/C=C\c3ccccc3)CC2=O)cc1OC (centres undefined),110,104
CC(=O)N1c2ccc(S(=O)(=O)N3CCN(c4cc(Cl)ccc4C)CC3)cc2CC1C (centres undefined),110,111
COc1ccc(-c2cc(C(F)(F)F)nc(SCCC(=O)Nc3ccc(OC)c(OC)c3)n2)cc1,104,106
CCOc1c(CC2C(=O)Nc3ccc(Br)cc32)cccc1OC (centres undefined),104,104
Cc1cc(Nc2ccc(F)cc2)nc(-n2nc(C)cc2C)n1,103,109
CCc1ccc(/C=C(/C#N)c2nc(-c3ccc(C)cc3)cs2)cc1,106,108
COc1ccc(C(=O)N2CCC(c3c[nH]c4ccccc34)(c3c[nH]c4ccccc34)CC2)cc1,113,109
COc1cc(OC)c(NC(=O)Cn2c(=O)cc(C)c3c(C)nn(-c4ccc(C)cc4)c32)cc1Cl,106,96

# Some of the entries so far, bar-delimited:
molecule | Polio RdRp inh | Polio RdRp inh intensity
COc1cc(OC)c(NC(=O)Cn2c(=O)cc(C)c3c(C)nn(-c4ccc(C)cc4)c32)cc1Cl | 106 | 96
COc1ccc2c(c1)c1c(c(=O)n(-c3ccc(OC)c(OC)c3)c(=O)n1Cc1ccccc1F)n2C | 112 | 108
